From PubChem
CBX7 inh – CBX7 inhibition, primary AlphaScreen; AlphaScreen His6-CBX7 / biotin-H3K27me3 peptide binding; hits give low values; normalised signal (fraction of DMSO) (test concentration not listed); actives 1.1% (n = 66,000); AID 1224903; in the data active = normalised signal below about 0.5;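 also: 100 nL library stock added to about 20 µL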
Target sequence (O95931 whole entry, looked up): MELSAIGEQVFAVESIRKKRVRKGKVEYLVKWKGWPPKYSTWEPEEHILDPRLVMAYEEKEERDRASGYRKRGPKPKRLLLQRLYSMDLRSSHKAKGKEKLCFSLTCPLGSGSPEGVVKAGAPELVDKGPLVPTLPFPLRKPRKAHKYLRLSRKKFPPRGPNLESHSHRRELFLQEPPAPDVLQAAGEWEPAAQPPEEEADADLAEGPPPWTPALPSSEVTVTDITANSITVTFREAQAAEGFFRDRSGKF
CBX7 inh z-score – second read-out of CBX7 inh, no call of its own (marks repeat the call); z-score; measured here: z-score of CBX7 signal; some inactives read as strong as hits; reference of the scale not given here;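 same signal on another scale; lower means less binding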
The depositor's hits bear a star; & = joins results of further samples.

SMILES	CBX7 inh	CBX7 inh z-score
COc1ccc(-c2nn(C)c3sc(C(=O)NCCCN4CCCC4)cc23)cc1OC	1	0.014
c1ccc(OCCn2c(SCc3nc4ccccc4[nH]3)nc3ccccc32)cc1	0.79	-1.5
FC(F)(F)c1nc2ccccc2nc1N1CCN(c2ccccc2)CC1	1	0.53
Cc1ccccc1Nc1c(-c2cccs2)nc2c(C)cccn12	0.91	-3.2
CCOC(=O)c1ccccc1NC(=O)CSc1ncnc2ccccc12	1	1.1
COc1cc2[nH]c(=O)n(CCCC(=O)NC3CCN(Cc4ccccc4)CC3)c(=O)c2cc1OC	1	0.06
CCOC(=O)N1CCC(N2Cc3cccc(C(=O)Nc4cccc(F)c4)c3C2=O)CC1	1	1.5
Cc1ccc(F)c(NC(=O)c2c(-c3c(F)cccc3Cl)noc2C)c1	1	0.47
Cc1ccc(C)c2[nH]c(=O)c(CCNC(=O)c3ccc(Cl)cc3)cc12	0.98	-0.52
O=C(CN1N=C(c2ccc(Cl)cc2)CCC1=O)NCCN1CCCC1	1.2	2.5
COc1ccc(C2C(=O)N(C3CCCCCC3)CC(=O)N2C2CCCCC2)cc1 (stereo not drawn)	1.5	1.9
CC(=O)Nc1ccccc1C(=O)C(=O)Nc1cccc(C(=O)NCc2ccccc2Cl)c1	0.93	-0.76
OC(COc1ccc(Br)cc1)Cn1cnc2ccccc21 (stereo not drawn)	0.59	-3.1
COc1cccc(-c2nc(-c3ccccc3)no2)c1OC	1.2	3.7
Cc1c(Cl)cccc1NC(=O)C1CC(=O)N(c2ccc(Br)cc2)C1 (stereo not drawn)	1	0.44
Cc1nc(NC(=O)c2ccccc2)sc1-c1csc(Nc2cccc(Cl)c2C)n1	0.9	-1.4
Cc1ccc(N(C)C(=O)CN(C)S(=O)(=O)c2ccc3c(c2)n(C)c(=O)c(=O)n3C)cc1	1	0.38
O=C(O)CCCCCNc1ncnc2ccc(Br)cc12	1.1	0.93
O=C(Nc1ccc(-c2nc3ccccc3o2)c(O)c1)c1cc2ccccc2o1	1	0.72
Cc1noc(C)c1S(=O)(=O)N(CC(=O)NCCc1ccc(Cl)cc1)c1ccc(C(C)C)cc1	1.1	0.4
Cc1ccnc(NS(=O)(=O)c2ccc(NC(=O)Cc3ccc(Cl)cc3)cc2)n1	1	0.17
CCc1ccc(-c2nc(C(=O)NCc3ccccc3)c(C)o2)cc1	0.93	-0.45
COc1ccccc1CN1CCN(Cc2ccc(OC)c(OC)c2)CC1	0.9	-1.2
COc1cccc(-c2nn(C)c3sc(C(=O)NCC4(c5ccccc5)CCCC4)cc23)c1	1	1.3
CCC(=O)Nc1c(-c2ccc(C)cc2)nc2ccc(C)cn12	0.85	-1.9
O=C(NC1CCCCC1)C1c2cccn2CC(=O)N1C1CC1 (stereo not drawn)	0.98	-0.53
Cc1noc(C)c1S(=O)(=O)NCCN1CCC(Cc2ccccc2)CC1	1	0.097
Cc1noc(C)c1S(=O)(=O)N1CCCC(C(=O)N2CC=C(c3ccccc3)CC2)C1 (stereo not drawn)	1.1	1
CC(C)C1C(=O)CC(c2ccccc2)NC1c1ccccc1 (stereo not drawn)	1.2	4.8
COc1ccccc1-c1cc(C(=O)NC2CCCC2)no1	0.94	-0.71
CCn1c(=O)cc(OCC(=O)Nc2ccc(F)c(Cl)c2)c2ccccc21	0.86	-2.4
COc1cccc(-c2nn(C)c3sc(C(=O)NCc4cc(OC)ccc4OC)cc23)c1	0.73	-2.8
CC(=O)Nc1ccc(NC(=O)C2(NS(=O)(=O)c3cccc4cccnc34)CCCCC2)cc1	0.88	-0.99
CCOC(=O)c1nc(Nc2ccc(C(=O)O)cc2)c2ccccc2n1	0.99	-0.38
O=C1N=C(c2ccccc2)c2cc(Cl)ccc2N=C2Oc3ccccc3C=C12	0.87	-1.7
COc1ccccc1C(=O)N1CCN(c2ccc3nnc(-c4ccccc4)n3n2)CC1	0.84	-2.3
Cc1cccc(NC(=O)CC2Sc3ccc(C(F)(F)F)cc3NC2=O)c1C (stereo not drawn)	1	0.17
Cc1ccc(C)c2[nH]c(=O)c(CCNC(=O)COc3ccc(Cl)cc3Cl)cc12	1	0.78
Cc1oc(-c2cccc(Br)c2)nc1CN1CCC(C(=O)O)CC1	1	1
COC(=O)c1c[nH]n2c(=O)c(Cc3ccc(F)cc3Cl)c(C)nc12	1.3	3.8
O=C(CC(C(=O)N1CCc2ccccc21)n1ccnc1)NC(c1ccccc1)c1ccccc1 (stereo not drawn)	0.45*	-14*
Cc1ccc(CNc2oc(COc3ccc(F)cc3)nc2C#N)cc1	0.82	-2.3
CCN1CCN(c2ccc(-n3c(C)nc4c(cnn4-c4ccccc4Cl)c3=O)cc2)CC1	1	0.39
O=C1CC(c2ccc(OC(F)(F)F)cc2)c2cc3c(cc2N1)OCCO3 (stereo not drawn)	0.91	-3.2
COc1ccc(C(=O)NCC2(c3ccc(OC)cc3)CCOCC2)cc1	0.99	-0.35
O=C1CC(NCCc2ccccc2)C(=O)N1c1ccc(Cl)cc1 (stereo not drawn)	0.98	-0.12
O=C(CNC1CCCCC1)Nc1c2c(nc3c1CCC3)CCC2	0.57	-5.8
CCOC(=O)c1cnc2ccccc2c1Nc1ccc(N(C)C)cc1	0.51	-4.7
CCOC(=O)c1cnc2ccccc2c1Nc1ccc(C)c(C)c1	0.81	-2
Cc1ccc(-c2noc(COc3cc(C)c(Br)c(C)c3)n2)cc1	1.2	11
CCN(CC)CCCNC(=O)c1c[nH]c2ccc(S(=O)(=O)N(CC)CC)cc2c1=O	1.2	2.7
COCCCNC(=O)CCn1nc(-c2ccc(Cl)cc2)ccc1=O	1.2	3.3
Cc1ccc(-c2nn(C)c(=O)c3ccccc23)cc1CNC(=O)c1ccc(Cl)cc1	1	1.4
O=C(NC1CCCCCC1)c1cc(=O)[nH]c2ccc(S(=O)(=O)N3CCCCC3)cc12	0.93	-0.83
CCN(CC)S(=O)(=O)c1ccc2c(c1)N(CC(=O)NCc1ccccc1Cl)C(=O)CS2	1	0.36
CC1(C)NC(=O)N(CC(O)CN(c2ccccc2)S(=O)(=O)c2ccccc2[N+](=O)[O-])C1=O (stereo not drawn)	0.99	-0.11
CCOc1ccc(CCNC(=O)C2CCC(=O)N2C2CCCC2)cc1OCC (stereo not drawn)	1	0.62
CN(C(=O)c1cc(-c2cccc(Cl)c2)on1)c1ccccc1	0.83	-2.3
Cc1cccc(NC(=O)C(=O)NCCCn2ccnc2)c1	0.42*	-15*
O=C(NCc1ccc(F)cc1)c1noc2c1CCc1ccccc1-2	1.2	1.4

Further compounds.
SMILES	CBX7 inh	CBX7 inh z-score
O=c1[nH]c(-c2cccnc2)nc2sc3c(c12)CCCC3	1.1&0.97	1.3&-0.51
Cn1c(COc2cccc3cccnc23)nnc1SCC(=O)c1ccc(F)cc1	0.99	-0.25
COc1ccc(OC)c(NC(=O)CSc2nnc(Cc3cccn3C)n2-c2ccc(C)cc2)c1	0.79	-5
CCOC(=O)c1c(C)n(CC)c2ccc(OC)cc12	1.1	3.4
CCOc1ccc(-n2c(=O)cc(N3CCN(CC)CC3)[nH]c2=O)cc1	1	0.08
COc1ccc(OC2C(=O)N(c3ccccc3Cl)C2c2ccc(OC)c(OC)c2)cc1 (stereo not drawn)	0.86	-0.48
CCOc1ccc(C2C(=O)N(C3CCCCCC3)CC(=O)N2Cc2ccc(C)cc2)cc1OC (stereo not drawn)	0.65	-1.4
O=C(Nc1ccc(-c2noc(/C=C/c3ccccc3)n2)cc1)c1cccnc1	0.96	-0.42
Cc1ccc(F)cc1NC(=O)c1cc(Cl)ccc1Nc1ccccc1	1.1	0.28
CCCCNC(=O)c1c[nH]c2ccc(S(=O)(=O)N3CCc4ccccc4C3)cc2c1=O	0.9	-0.1
COc1ccc(CCN(Cc2ccccn2)S(=O)(=O)c2ccc(Cl)cc2)cc1OC	0.94	-0.7
Cc1cccn2c(Nc3ccccc3)c(-c3ccsc3)nc12	0.96	-1
CC12C(=O)N(c3cccc(C(=O)O)c3)C(=O)C1C1C=CC2C1 (stereo not drawn)	1	0.47
COc1cc(OC)cc(-c2nnc(SCC(=O)Nc3nccs3)o2)c1	1	0.44
CCOC(=O)c1ccc(NC(=O)CSc2nccn2-c2ccc(F)cc2)cc1	0.97	-0.25
CCCCOc1ccc(NC(=O)NC2(c3ccccc3)CC2)cc1	1.1	0.25
O=C(NC1CCCC1)C1CCC(=O)N1CCc1ccccc1 (stereo not drawn)	1.1	0.97
Cc1nc2nc(=S)[nH]n2c(C)c1Cc1c(F)cccc1Cl	0.99	-0.13
CCN1CCN(c2cc(C)c3cc(NC(=O)c4ccc(C)c(C)c4)ccc3n2)CC1	1.1	0.81
O=C(CCn1nc(-c2ccc(Cl)cc2)ccc1=O)NC1CC1	0.94	-0.75
COc1ccc(S(=O)(=O)N(C)CCc2ccccn2)cc1	0.94	-2.4
Cc1ccc(CNC(=O)c2ccc3c(c2)N(Cc2ccccc2F)C(=O)c2ccccc2S3)cc1	0.92	-3.7
Cc1nnc(SCc2nc(-c3ccc(Cl)cc3)no2)n1-c1ccccc1	0.99	-0.29
COc1ccc(-n2nc(C(=O)Nc3ccc(Oc4ccccc4)cc3)c3ccccc3c2=O)c(OC)c1	0.9	-1.8
Cc1ccc(-n2c3c(cc(C(=O)NCCCO)c2=O)C(=O)CCC3)cc1	1.1	0.53
CCOC(=O)c1cc(-c2ccccc2)n(CCC(=O)Nc2ccc(OC)c(Cl)c2)c1C	0.92	-2
CCC(=O)Nc1nc(-c2ccc(OC)c(Br)c2)cs1	1.1	0.56
COc1ccccc1CNC(=O)c1ccc2c(c1)N(Cc1ccccc1C)C(=O)CS2	0.92	-0.78
COc1ccc(NC2c3ccccc3C(=O)N2c2ccc(C)cn2)cc1 (stereo not drawn)	0.66	-4.6
CCCCN(CCCC)CC(O)CN(c1ccc(C)cc1)S(=O)(=O)c1ccc(C)cc1 (stereo not drawn)	0.97	-0.075
O=C(NCc1nnc(SCC(=O)N2CCCCC2)o1)c1cccs1	1	0.72
COc1ccc(Cl)cc1Nc1c2c(nc3ccc(Cl)cc13)CCCC2	0.84	-0.22
COc1ccc(CC(=O)NCC2(c3ccccc3)CCOCC2)cc1	0.93	-1.3
CCN1CCCC1CNC(=O)c1cc(-c2ccc(C)c(C)c2)nc2ccccc12 (stereo not drawn)	1.1	1.9
O=C(NCC1CCCO1)c1ccc2c(c1)N(Cc1ccccc1)C(=O)CS2 (stereo not drawn)	1.1	1.4
CCCn1cnc2cc(NCc3ccc(OC)cc3OC)ccc21	0.88	-3.1
O=C(Nc1nnc(CCS(=O)(=O)c2cc(Cl)ccc2Cl)s1)c1ccco1	1.1	1.2
NS(=O)(=O)c1ccc(NC(=O)C2C3C=CC(O3)C2C(=O)O)cc1 (stereo not drawn)	1	-0.06
CN(C)S(=O)(=O)c1ccc(C(=O)Nc2c(C(=O)Nc3ccc(F)cc3)oc3ccccc23)cc1	1	1.2
COc1ccc(-n2cnc3cc(C(=O)N4CCOCC4)ccc32)cc1	1	0.049

Given with bars between the fields: part of the list above
canonical_smiles | CBX7 inh | CBX7 inh z-score
COc1ccc(CC(=O)NCC2(c3ccccc3)CCOCC2)cc1 | 0.93 | -1.3
CCN1CCCC1CNC(=O)c1cc(-c2ccc(C)c(C)c2)nc2ccccc12 (stereo not drawn) | 1.1 | 1.9
O=C(NCC1CCCO1)c1ccc2c(c1)N(Cc1ccccc1)C(=O)CS2 (stereo not drawn) | 1.1 | 1.4
CCCn1cnc2cc(NCc3ccc(OC)cc3OC)ccc21 | 0.88 | -3.1

(continued)
SMILES	CBX7 inh	CBX7 inh z-score
O=C(Cn1cc(S(=O)(=O)c2ccc(F)cc2)c(=O)c2cc(Cl)ccc21)Nc1ccc(F)cc1	0.98	-0.58
CCOC(=O)CNC(=O)c1sc2ncn(Cc3ccccc3F)c(=O)c2c1C	1	-0.01
COc1cc(OC)c(NC(=O)CCc2c(C)nc3ncnn3c2C)cc1Cl	1.1	2.3
CCCCN1C(=O)C(O)(CC(=O)c2ccccc2)c2cc(Br)ccc21 (stereo not drawn)	0.78	-0.24
COc1ccc(-c2c(C)nn3c(NCc4ccc(C)cc4)cc(C)nc23)cc1OC	0.89	-0.28
CC(C)c1nc(N2CCCCC2)c(C#N)c2c1CCCC2	1.2	5.8
O=C1CSc2ccccc2N1Cc1ccc(F)cc1Cl	1.1	0.84
Cc1cccc(CN2C(=O)CSc3ccc(C(=O)NCc4cccnc4)cc32)c1	0.98	-0.88
Cc1nc2cc(-c3cccc(F)c3)nn2c(C)c1CCC(=O)NC(C)c1ccc2c(c1)OCCO2 (stereo not drawn)	1	0.72
COc1cc(Cl)c(C)cc1NC(=O)c1ccc2c(=O)n3c(nc2c1)CCCCC3	0.98	-0.051
CCOC(=O)c1cnc2ccc(OC)cc2c1Nc1ccc(N2CCN(C)CC2)cc1	0.8&0.53	-5.5&-5.1
COc1ccc(CC(=O)Nc2nnc(C(C)(C)C)s2)cc1	0.95	-1
Cc1ccc2c(c1)NC(=O)C(CC(=O)NCCCN1CCC(Cc3ccccc3)CC1)O2 (stereo not drawn)	0.96	-1.7

Random excerpt: two compounds from above.
SMILES	CBX7 inh	CBX7 inh z-score
O=c1[nH]c(-c2cccnc2)nc2sc3c(c12)CCCC3	1.1&0.97	1.3&-0.51
Cc1ccc(-c2nn(C)c(=O)c3ccccc23)cc1CNC(=O)c1ccc(Cl)cc1	1	1.4

In the list so far, these have a furan ring, fused or not.
SMILES	CBX7 inh	CBX7 inh z-score
O=C(Nc1ccc(-c2nc3ccccc3o2)c(O)c1)c1cc2ccccc2o1	1	0.72
O=C(Nc1nnc(CCS(=O)(=O)c2cc(Cl)ccc2Cl)s1)c1ccco1	1.1	1.2
CN(C)S(=O)(=O)c1ccc(C(=O)Nc2c(C(=O)Nc3ccc(F)cc3)oc3ccccc23)cc1	1	1.2

A portion of the library. The share of hits here may be higher or lower than overall.
